Source: PubChem
VDR inhibitor: inhibitors of human vitamin D receptor. AID 504847. hit rate 0.93% among 400,000. VDR-SRC2-3 peptide fluorescence polarization, 2 h. Potency, µM, for inactives: max response, negative = inhibition, hits mostly inhibitors; active means well fitted inhibition curve with a large enough effect; inconclusive means small, poorly fitted or top-dose-only effect, or another doubt; inactive means no such curve, though single readings can be large or run the other way; further: series mostly up to about 120 µM
Target sequence (P11473 whole entry, looked up): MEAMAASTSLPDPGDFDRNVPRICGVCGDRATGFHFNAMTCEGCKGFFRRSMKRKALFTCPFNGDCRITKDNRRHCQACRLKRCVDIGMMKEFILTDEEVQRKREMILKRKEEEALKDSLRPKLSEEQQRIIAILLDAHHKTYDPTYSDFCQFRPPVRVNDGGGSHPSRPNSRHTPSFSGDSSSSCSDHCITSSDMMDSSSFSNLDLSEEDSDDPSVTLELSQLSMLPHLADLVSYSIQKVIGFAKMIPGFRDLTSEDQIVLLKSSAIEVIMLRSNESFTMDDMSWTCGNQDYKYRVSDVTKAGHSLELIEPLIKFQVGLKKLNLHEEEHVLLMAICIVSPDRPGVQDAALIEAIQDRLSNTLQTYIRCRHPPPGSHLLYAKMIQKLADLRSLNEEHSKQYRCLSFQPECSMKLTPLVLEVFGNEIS
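Fluorescence polarization assay measuring small-molecule disruption of VDR binding to the coregulator peptide SRC2-3. Compounds were pin-transferred (23 nl) into the reagent mix and incubated 2 h at room temperature before reading.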
An asterisk follows results filed as active; u = inconclusive; & = joins results of further samples; [ ] = another dose, or the depositor's remark. On the % scale 0 is the no-effect control and ±100 the full control effect; potency means the concentration at half of the fitted maximal effect. These rows are one share of the data; rates above refer to the full screens.

VDR inhibitor	structure
-15%	Cc1nnc(NC(=O)CSc2nc(CC(C)C)nc3c2c(=O)n(C)c(=O)n3C)s1
-5%	Cc1ccc(C(=O)NCCSC(C)(C)C)cc1[N+](=O)[O-]
-14%	COCCN1Cc2cccc(C(=O)NCCc3ccccc3)c2C1=O
-1%	Nc1ccc(C(=O)N2CCN(S(=O)(=O)c3ccc(Br)cc3)CC2)cc1[N+](=O)[O-]
-19%	CCCCn1c(N)c(N(CC)C(=O)CSc2nnnn2-c2cc(C)ccc2C)c(=O)[nH]c1=O
-16%	O=C(O)CC(CC(=O)O)n1cccc1
6%	COc1ccc(Cl)cc1NS(=O)(=O)c1ccc(S(=O)(=O)N2CCCC2)cc1
u	CC1=CC(C)(C)N2C(=O)C(=O)c3cc(OC(=O)c4ccco4)cc1c32
-7%	Cc1cccc(-c2nn(-c3ccccc3)cc2C(=O)N(C)CC(=O)Nc2ccc(N3CCOCC3)cc2)c1
-8%	Cc1snc2sc(C(=O)c3ccc(F)cc3)c(N)c12
0%	CCN(C(=O)COC(=O)c1cc(=O)[nH]c2ccccc12)C1CCS(=O)(=O)C1 (stereo not given)
-1%	Cc1csc(SCC(=O)Nc2ncc(Cl)c(C)c2Cl)n1
6%	COc1ccc(N2CCN(C(=O)C3CCN(c4nc5ccc(C)cc5[nH]4)CC3)CC2)cc1
5%	COc1ccccc1NC(=O)c1cc(C(=O)O)ccc1C(=O)O
-6%	O=[N+]([O-])c1ccc(Cl)cc1CNc1ccc(F)c(F)c1
-7%	COc1ccc(/C=C/C(=O)NCc2ccccn2)cc1OC
10%	CSc1ncc(C(=O)NCc2ccc(C)cc2)c(C)n1
-19%	COc1ccc(NC(=O)CC2Sc3ncnn3C2=O)cc1 (stereo not given)
-16%	O=C(c1ccc(N2CCCCC2)c([N+](=O)[O-])c1)N1CCN(S(=O)(=O)c2ccccc2)CC1
-12%	Cc1cc(C)cc(NS(=O)(=O)c2cccs2)c1
-12%	CCN1CCN(CCCNC(=O)c2ccc(CS(=O)c3ccc(Br)cc3)o2)CC1 (stereo not given)
-22%	Cn1c(=O)c2c(nc(CN3CCN(Cc4ccccc4)CC3)n2Cc2ccc(Cl)cc2)n(C)c1=O
-26%	CC(C)CNS(=O)(=O)c1ccc(OCC(=O)Nc2ccc3c(c2)OCO3)c(Cl)c1
15%	Cc1ccc2oc(=O)n(Cc3ccccc3OC(C)C)c2c1
-4%	COc1ccc(Cl)cc1NC(=O)COc1ccc(S(=O)(=O)N2CCOCC2)cc1C

Among those listed so far, five have two or more sulfur atoms:
VDR inhibitor	structure
-15%	Cc1nnc(NC(=O)CSc2nc(CC(C)C)nc3c2c(=O)n(C)c(=O)n3C)s1
6%	COc1ccc(Cl)cc1NS(=O)(=O)c1ccc(S(=O)(=O)N2CCCC2)cc1
-8%	Cc1snc2sc(C(=O)c3ccc(F)cc3)c(N)c12
-1%	Cc1csc(SCC(=O)Nc2ncc(Cl)c(C)c2Cl)n1
-12%	Cc1cc(C)cc(NS(=O)(=O)c2cccs2)c1

Sorted by molar mass (lowest first): part of the list above.
VDR inhibitor	structure
-6%	O=[N+]([O-])c1ccc(Cl)cc1CNc1ccc(F)c(F)c1
u	CC1=CC(C)(C)N2C(=O)C(=O)c3cc(OC(=O)c4ccco4)cc1c32
-12%	CCN1CCN(CCCNC(=O)c2ccc(CS(=O)c3ccc(Br)cc3)o2)CC1 (stereo not given)

The listing continues.
VDR inhibitor	structure
5%&2%	O=S(=O)(NCCNC/C=C/c1ccc(Br)cc1)c1cccc2cnccc12
3%	Clc1ccc(CNCCCSc2ncccn2)cc1Cl
3%	O=C(c1ccccc1Br)N1CCC(c2nc3ccccc3o2)CC1
-8%	Cc1ccc(NC(=O)c2c(-c3c(F)cccc3Cl)noc2C)cc1F
-12%	O=c1c2sccc2n(Cc2cc(=O)n3ccccc3n2)c(=O)n1-c1ccccc1
-6%	COc1ccccc1N1C(=O)C2CCC(c3ccccc3)CC2C1=O (stereo not given)
7%	OCC(O)/C=N/Nc1nc(N2CCCCC2)nc(N2CCCCC2)n1 (stereo not given)
-3%	O=C(NCc1ccccc1Cl)C1CCN(S(=O)(=O)c2ccc(-n3cnnn3)cc2)CC1
2%	CCCOc1ccc(N2C(=O)CC(N3CCN(c4ccccc4OC)CC3)C2=O)cc1 (stereo not given)
10%	Cc1ccc(SCC(=O)OC(C)C(=O)N2CCc3ccccc32)cc1 (stereo not given)
14%	O=C(c1ccc2c(c1)OCO2)N1CCN(c2ccccc2)CC1
29%	CC(=O)c1cc2c(cc1NC(=O)c1ccco1)OCCO2
-2%	COc1ccc(S(=O)(=O)N2CCOC2CNC(=O)C(=O)NCc2ccncc2)cc1OC (stereo not given)
-29%	Cc1[nH]c2ccccc2c1SCc1nnc(SCc2ccccc2)n1C
-18%	CCN(CC)C(=O)C1CCCN(Cc2ccccc2)C1 (stereo not given)
21%	Cc1nc(-c2ccc(S(=O)(=O)Nc3ccc(S(N)(=O)=O)cc3)cc2)co1
-15%	O=C(NCc1ccccc1F)c1ccc(S(=O)(=O)N2CCCCCC2)cc1
7%	CC[C@]12c3[nH]c4ccccc4c3CCN1C(=O)C(CC(=O)NCC13CC4CC(CC(C4)C1)C3)C[C@@H]2C(=O)N1CCN(C(=O)c2ccco2)CC1 (stereo not given in full)
-19%	Cc1cccnc1NC(=O)CCCNC(=O)c1ccc(Cl)cc1
-9%	N=C1C(c2ccccc2)=C(O)CN1c1cccc(S(=O)(=O)NCc2ccco2)c1
6%	CCNC(=O)NC(=O)COC(=O)CNC(=O)COc1ccccc1
50µM*	CC(=O)Nc1ccc(-c2nnc(SCC(=O)c3ccc4c(c3)Cc3ccccc3-4)n2C)cc1
10%	COc1cccc(/C=N/Nc2cc(Cl)nc(C)n2)c1O
-5%	O=C(C1CC1)N(CCN(C(=O)C1CC1)c1ccccc1)c1ccccc1
14%	O=C(CN1C(=O)C2CC=CCC2C1=O)Nc1nc(-c2ccc(F)cc2)cs1 (stereo not given)

Reprinted from above, 6 compounds:
VDR inhibitor	structure
-9%	N=C1C(c2ccccc2)=C(O)CN1c1cccc(S(=O)(=O)NCc2ccco2)c1
6%	CCNC(=O)NC(=O)COC(=O)CNC(=O)COc1ccccc1
50µM*	CC(=O)Nc1ccc(-c2nnc(SCC(=O)c3ccc4c(c3)Cc3ccccc3-4)n2C)cc1
10%	COc1cccc(/C=N/Nc2cc(Cl)nc(C)n2)c1O
-5%	O=C(C1CC1)N(CCN(C(=O)C1CC1)c1ccccc1)c1ccccc1
14%	O=C(CN1C(=O)C2CC=CCC2C1=O)Nc1nc(-c2ccc(F)cc2)cs1 (stereo not given)

Next results:
VDR inhibitor	structure
8%	CC(C)COc1ccc(C(=O)Nc2sc3c(c2C(=O)O)CC(C)(C)OC3)cc1
-2%	COc1ccc(S(=O)(=O)N2CCN(C(=O)c3ccc(=O)[nH]n3)CC2)cc1OC
5%	CCn1cc2nc(SCc3cccc(C(F)(F)F)c3)n(Cc3ccc(Cl)cc3)c(=O)c2n1
45µM*	CC(=O)Oc1ccc(N2C(=O)C3C4C=CC(CO)(O4)C3C2=O)cc1 (stereo not given)
-18%	CC(=O)Nc1ccc(S(=O)(=O)NCC2(N3CCOCC3)CCCCC2)cc1
-3%	CCCCN=C1CC(C)(C)CC(=O)/C1=C(/O)CCC
-12%	O=C(CCc1ccc(S(=O)(=O)N2CCOCC2)cc1)N1CCc2ccccc2C1
7%	CCOc1ccc(C(C)=O)cc1COC(=O)C(C)N=C1NS(=O)(=O)c2ccccc21 (stereo not given)
-14%	COc1cccc(N=c2oc3ccc(OC)cc3cc2-c2nc3ccccc3[nH]2)c1
-4%	CCOC(=O)c1cc(NC(=O)CSCCO)ccc1Cl
2%	CNC1(C(N)=O)CCNCC1
-11%	O=C1CC[C@H](OCc2ccccc2)CCN1[C@H](CSc1ccccc1)Cc1ccccc1
-4%	C=CCn1c(=O)c(C(=O)NCc2ccc3c(c2)OCO3)c(O)c2cc(OC)c(OC)cc21
12%	C/C(=N\NC(=O)c1cc2c(s1)CCC(C)C2)c1cccnc1 (stereo not given)
13%	O=c1cc(-c2ccsc2)oc2ccc(-c3ccc4cc[nH]c4c3)cc12
-15%	CN(C(=O)c1ccccc1-c1ncc[nH]1)C1CCCN(Cc2ccccc2F)C1 (stereo not given)
11%	Cc1ccc(S(=O)(=O)NC(CC(C)C)C(=O)NCc2ccco2)cc1 (stereo not given)
-7%	Cc1ccc(NC(=O)c2ncn(-c3ccccc3)n2)c(Cl)c1
19%	CCn1ccnc1CN1CCN(CC(C)C)C(CCO)C1 (stereo not given)
4%	Cc1ccc(CN2CCNC(=O)C2CC(=O)N(C)C2CCCCC2)cc1 (stereo not given)
-7%	Clc1cccc(Cl)c1Cn1cnc(=NCc2ccco2)c2[nH]cnc21
-21%	O=C(CSc1ccc2nnc(-c3ccncc3)n2n1)Nc1nccs1
8%	N#CC1=C(N)SC(N)=C(C#N)C1C1CC=CCC1 (stereo not given)
49%[activator]	Cn1cccc1Cc1nnc(SCC(=O)Nc2nc3ccccc3s2)n1CCc1ccccc1
-5%	COC(=O)c1cc2c(-c3ccccc3)c(C)c3ccccn3c-2c1C(=O)OC

Further results follow.
VDR inhibitor	structure
-19%	CN(C)c1ncc2ncc(=O)n(C)c2n1
-16%	COCCCC1CCN(Cc2cn[nH]c2-c2cc(OC)c(OC)c(OC)c2)CC1
33%[activator]	Cc1ccc(S(=O)(=O)c2c(N)n(/N=C/c3ccco3)c3nc4ccccc4nc23)cc1
-7%	Cc1cc(NC(=O)CCC(=O)N(Cc2ccco2)C(C(=O)NC2CCCC2)c2ccccc2)no1 (stereo not given)
-11%	COc1ccc(CCC(=O)OCC(=O)Nc2ccc(C)c(S(=O)(=O)N(C)C)c2)cc1
-11%	COC(CNC(=O)c1ccc2nc(-c3ccccc3)c(-c3ccccc3)nc2c1)OC
2%	NC(=O)c1ccccc1OCC(=O)N1CCc2ccccc2C1
25%	O=C(CC(c1ccccc1)c1ccccc1)NCC1CCCO1 (stereo not given)
-15%	CN(C(=O)COC(=O)CNC(=O)c1ccccc1F)C1CCCCC1
3%	Cc1ccc(S(=O)(=O)N2[C@@H](c3ccc(C(C)C)cc3)C(C(=O)O)=C[C@H]2C(C)(C)C)cc1
9%	COc1cc(/C=N/NC(=O)C(=O)NCC2CCCO2)cc(Cl)c1O (stereo not given)
5%	O=C(c1ccc2c(c1)OCCO2)C1CCN(C(=O)c2ccc(F)c(F)c2)CC1
-15%	C/C(=N/NC(=O)CNC(=O)c1ccncc1)c1ccc(Cl)cc1
5%	CC(C)CC1Nc2ncnc(N3CCN(c4ccccc4)CC3)c2N(Cc2ccccc2)C1=O (stereo not given)
-25%	COC(=O)c1ccc(Sc2ccc(C)cc2)c(N)c1
1%	Cc1cc(N2CCN(S(=O)(=O)Cc3ccccc3)CC2)n2ncnc2n1
-2%	Cc1onc(-c2ccccc2Cl)c1C(=O)NC1CCS(=O)(=O)C1 (stereo not given)
-9%	CC(=O)c1ccc(N(CC(=O)NC2CCS(=O)(=O)C2)S(=O)(=O)c2ccc(C)cc2)cc1 (stereo not given)
-18%	O=C(c1ccc(Cl)cc1)N1CCC(c2ccncc2)CC1
-12%	Cc1ccc(-n2c(SCC(=O)Nc3cccc(S(=O)(=O)NC4=NCCCCC4)c3)nc3ccccc3c2=O)cc1
-14%	O=C(Nc1nc2c(F)cc(F)cc2s1)c1ccco1
-12%	CCOC(=O)c1ccc2[nH]c3c(c2c1)CCCC3NC=O (stereo not given)
-3%	CCOC(=O)C1CCN(Cc2nc3ccc(Cl)cc3n2CCO)CC1
22%	NC(=O)CSC1=Nc2ccccc2C2=NC(CC(=O)NCc3cccs3)C(=O)N12 (stereo not given)
4%	CCCCCn1c(=S)[nH]c2cc(C(=O)N3CCCC3)ccc2c1=O

Remaining list, next part.
VDR inhibitor	structure
-18%	CCOc1cc(CNCC(C)C)cc(Cl)c1OCc1ccccc1
1%	COc1cccc(NC(=O)Cn2cc(C=O)c3ccccc32)c1
-12%	COc1ccc(N2C(=O)C(CC(=O)Nc3ccccc3)N(CCc3ccc(OC)c(OC)c3)C2=O)cc1 (stereo not given)
14%	CC(OC(=O)c1ccc2c(c1)OCO2)C(=O)NC1CCCCC1C (stereo not given)
-3%	CCCCCCCCNC(=O)CCNC(=O)c1ccc(C(C)(C)C)cc1
-9%	CCOC(=O)CCCNC(=O)CCNC(=O)c1ccc(OCC(C)C)cc1
-13%	CCN(CC)S(=O)(=O)c1ccc(OC)c(NC(=O)CSc2ccccc2)c1
0%	COc1ccc(Br)c2c1-c1nc(NC(=O)c3ccccc3F)sc1C2
-5%	O[C@H]1[C@H]2c3cc4c(cc3CN3CCC(=C[C@@H]1O)[C@H]23)OCO4
-4%	O=C(O)c1ccc(CNCc2ccccc2F)cc1
1%	CCOCCCNC(=O)c1ccccc1Br
4%	O=C(COc1ccc(Cl)cc1Cl)NC(=O)N1CCOCC1
-18%	Cc1ccc(Cl)cc1NC(=O)C1CCCN(S(C)(=O)=O)C1 (stereo not given)
-8%	Cc1onc(-c2ccccc2)c1NC(=O)Nc1c(-c2ccccc2)noc1C
-1%	COc1ccc(C(=O)Nc2ccc(CN3CCOCC3)cc2)cc1
5%	O=C(NCc1ccc2c(c1)OCO2)C1CCCN1C(=O)Nc1ccccc1 (stereo not given)
8%	CC(=O)Oc1ccc2oc3c(c2c1)C(=O)CCC3
-6%	Cc1c(N/C(=N/S(=O)(=O)c2ccccc2)c2ccc(Cl)cc2)c(=O)n(-c2ccccc2)n1C
-16%	O=Cc1ccc(Oc2ccc(F)cc2)nc1
1%	Fc1ccc(Br)cc1/C=N/N1CCN(c2ccccc2)CC1
14%	COc1ccc2sc(-c3ccc(S(C)(=O)=O)cc3)c(C(=O)NCCCN3CCCC3=O)c2c1
-19%	CC(=O)c1ccc(NC(=O)Cn2c(=O)oc3ccccc32)cc1
-2%	COc1ccc(-n2c(=O)c(-c3cn(C)c4ccccc34)nc3cnc(N4CCOCC4)nc32)cc1
-20%	COc1cc(/C=N/NC(=O)CCC(=O)Nc2ccc(Br)cc2)ccc1O
-4%	O=C(CN1C(=O)CSC1=O)N1CCCCC1
